Screening data as filed in PubChem.
Choline anaer gr: blocks anaerobic gram-negative growth on choline; Gram-negative bacterium anaerobic choline minimal medium, absorbance growth; hits give low values; many inactives read as strong as hits in the columns shown; calls only; actives 0.2% (n = 55,000); AID 1963822;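 active means growth z-score on choline under -2 at 7 or 20 h with little or no fall on glycerol, limits in tiers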;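 further: stock transfer was 300 nL into about 50 µL; the organism is E. coli; final concentration not given here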
Choline anaer gr early: recorded beside Choline anaer gr, whose call it bears; z-score; measured here: choline growth z-score, timepoint 1;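 score of optical density at 7 h as mean of two plates; lower means less growth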
An asterisk follows results filed as active; i = inactive.

SMILES	Choline anaer gr	Choline anaer gr early
CC(=O)N1CCc2cc3ccccc3nc21	i	-0.13
O=c1c2ccccc2c(-c2nc(-c3ccccn3)no2)nn1-c1cccc(Cl)c1	i	0.12
Cc1ccc(C)c(N2CCN(S(=O)(=O)c3cc(-c4noc(C5CC5)n4)cs3)CC2)c1	i	0.63
Cn1c(=O)c(-c2noc(C(=O)NC3CCCCC3)n2)nn(-c2ccccc2)c1=O	i	0.44
O=C(NCCn1c(-c2ccccc2)nc2cccnc21)NCc1ccccc1	i	0.13
O=C(c1ccc2c(Cl)c3c(nc2c1)CCCC3)N1CC=C(c2ccccc2)CC1	i	-0.02
O=C(C1=CN(c2ccc3c(c2)OCCO3)c2cc(F)ccc2S1(=O)=O)N1CCOCC1	i	-1.25
CCCSCCCN1C(=O)c2nc3ccccc3n2CC1(C)C(=O)NC1CCCCC1 (stereo unspecified)	i	1.32
c1ccc(-c2nnc(-c3cccnc3NCc3ccc4c(c3)OCO4)o2)cc1	i	-2.27
CCCc1nn2c(=O)cc(CN(Cc3ccc(C(C)C)cc3)CC(C)C)nc2s1	i	0.17
Cc1nnc2sc(-c3cccc(F)c3)nn12	i	-1.4
CCn1c(=O)cc(OCC(=O)N2CCN(c3ccccn3)CC2)c2ccccc21	i	-0.18
O=C(Cn1c(=O)n(Cc2ccc3c(c2)OCO3)c(=O)c2oc3ccccc3c21)Nc1cccc(F)c1	i	0.07
O=C(Cn1nc(-c2ccccc2)c2cc(Cl)ccc21)NC1CCCC1	i	0.21
CC(C)c1cc(C2CCCN2S(C)(=O)=O)on1 (stereo unspecified)	i	0.71
Cc1ccc(-n2nnc(C(=O)OCc3ccccc3F)c2C)cc1Cl	i	0.9
COC(=O)c1ccc(CSc2nc3nc[nH]c3c(=O)[nH]2)cc1	i	-0.47
Cc1c(-c2nc(-c3ccccc3)no2)nnn1-c1ccc(Br)cc1	i	-0.13
Cc1ccccc1NC(=O)C(C)n1nc(-c2ccc(C)c(S(=O)(=O)N3CCOCC3)c2)ccc1=O (stereo unspecified)	i	0.34
CC(C)NC(=O)CSc1nc2ccccc2n2c(C(C)C)nnc12	i	3.57
Cn1c(SCC(=O)N2CCc3cc(Br)ccc32)nnc1-c1cc2ccccc2o1	i	-2.14
Cc1cccc(NC(=O)N(C)CCc2noc(C(=O)NCc3ccc(Cl)cc3)n2)c1C	i	-0.76
COc1cc(OC)c(NC(=O)N2CCN(S(=O)(=O)c3ccc4c(ccn4C)c3)CC2)cc1Cl	i	0.72
Brc1ccc(-c2nn3c(-c4ccccn4)nnc3s2)cc1	i	0.11
CCC(CO)NCc1ccc(-c2cccc(Cl)c2)o1 (stereo unspecified)	i	-0.47
O=C(CN1C(=O)c2ccccc2C1=O)Nc1ccc(N2CCCS2(=O)=O)cc1	i	-0.04
O=C(CSc1ncnc2nc(N3CCSCC3)sc12)Nc1ccc(Br)cc1F	i	0.4
CCOC(=O)c1c(C)[nH]c(C(=O)N2CCC(CC(=O)NCc3ccc(Cl)cc3)CC2)c1C	i	0.78
COC(=O)c1cc2c(cc1NC(=O)c1cc(-c3ccccn3)nc3ccccc13)OCO2	i	-0.04
CCOC(=O)c1ccccc1NC(=O)Cn1cc(C(=O)OCC)c(=O)c2ccc(C)nc21	i	-0.51
N#C/C(=C\c1cc(Cl)cc(Cl)c1)c1cccnc1	i	0.32
COCCCNC(=O)C1CCN(c2cc(C)nc3c(-c4ccc(OC)c(OC)c4)c(C)nn23)CC1	i	0.02
COc1ccc(C(CNC(=O)COc2ccccc2)N2CCCCC2)cc1 (stereo unspecified)	i	0.19
CC(=O)Nc1cc(-c2nc(-c3ccc(Oc4ccccc4)cc3)no2)ccc1C	i	0.57
O=C(Nc1ccccc1F)C1CCC(=O)N1S(=O)(=O)c1ccccc1 (stereo unspecified)	i	-0.17
CC(C)(C)C(=O)Nc1noc2ccccc12	i	-1.47
CN1CC(=O)N(CC(=O)Nc2ccc3c(c2)OCO3)c2ccccc2C1=O	i	-0.59
O=C(COc1ccc(-c2nc(-c3ccccc3)no2)cc1)N1CCCC1	i	-0.07
Cn1c(=O)[nH]c(=O)c2c1nc(N1CCOCC1)n2CC(N)=O	i	0.29
Cc1ccc(N2C(=O)c3cc4ccsc4n3CC2(C)C(=O)NC2CCCC2)c(C)c1 (stereo unspecified)	i	1.66
c1ccc(-c2noc(-c3ccc(N4CCN(C5CCCCC5)CC4)nn3)n2)cc1	i	-0.07
CCOC(=O)C1CCN(C(=O)CCc2nnc3n(CC(C)C)c(=O)c4sccc4n23)CC1	i	-0.43
Cc1nn(-c2nc3ccc(Br)cc3s2)c2c1C(c1c(C)sc3ccccc13)CC(=O)N2 (stereo unspecified)	i	0.01
CCN(CC)C(=O)Cn1c(=O)c2ccccc2n2c(=S)sc(-c3ccc(Br)cc3)c12	i	-1.08
Cc1nc(Nc2ccc(F)cc2)nc2c1ncn2-c1ccc(F)cc1	i	-0.34
Cc1ccccc1-c1nc2scc(CCNC(=O)c3ccc(F)cc3)n2n1	i	-0.41
Cc1cc2c(cc1S(=O)(=O)N1CCCC(C(=O)NCc3ccc(Cl)cc3)C1)OCC(=O)N2 (stereo unspecified)	i	0.8
COc1cc(C2NC(C(=O)O)CS2)ccc1OCc1ccccc1C (stereo unspecified)	i	-0.7
CC1(C(=O)NC2CCCC2)Cn2c(cc3ccsc32)C(=O)N1c1ccc(Cl)cc1 (stereo unspecified)	i	-0.4
CC(C)c1nc(CN(C)C(=O)NC(CCN2CCOCC2)C(=O)NC(CCC(Cc2ccccc2)NC(=O)OCc2cncs2)Cc2ccccc2)cs1 (stereo unspecified)	i	0.74

The list continues.
SMILES	Choline anaer gr	Choline anaer gr early
CC(C)CNC(=O)CCn1c(=O)c2ccccc2n2c(=O)n(CC(=O)NC(C)C)nc12	i	-1.17
CC(NC(=O)COc1ncnc2onc(-c3ccccc3)c12)c1ccccc1 (stereo unspecified)	i	0.1
CCCCSc1nn(CC(=O)OCC)c2nc3c(c(=O)n12)C(C)(C)Cc1ccccc1-3	i	1.87
CCCSCCCNC(=O)c1ccc(-n2nnc3cccnc32)cc1	i	-0.28
COc1ccc(-c2nc3ccccc3c3nnc(SCc4ccccn4)n23)cc1	i	0.66
COc1ccccc1OC(C)C(=O)Oc1cccc(-n2cnnn2)c1 (stereo unspecified)	i	-1.16
Cc1ccccc1-c1cc2n(C)c(C)c(CCC(=O)Nc3ccc4c(c3)OCO4)c(=O)n2n1	i	-0.55
O=C(NC1CCCC1)C1CCCN(c2nn3c(=O)c4c(nc3s2)CCCC4)C1 (stereo unspecified)	i	0.05
COc1ccc(S(=O)(=O)N2CCN=C2N2CCN(c3cccc(Cl)c3)CC2)cc1	i	0.81
COC(=O)C(OC(=O)c1cnn2c(C(F)(F)F)cc(-c3ccccc3OC)nc12)c1ccccc1 (stereo unspecified)	i	0.2
CCCNC(=O)Cn1c(=O)c2c(OC)c(C)cnc2n(C)c1=O	i	0.19
CN(C)c1nc2ncn3c(=O)n(CC(=O)Nc4ccc(Cl)cc4F)nc3c2s1	i	-2.32
CCC(C(=O)NCCCN1CCCC1=O)N1C(=O)CCCc2ccccc21 (stereo unspecified)	i	-0.72
Cc1ccc2c(c1)c(=O)n(CCCOC(C)C)c1nnc(SCc3ccccc3C)n21	i	-0.46
CC1=C(c2ccc(F)cc2)S(=O)(=O)N(CC(=O)Nc2c(F)cc(F)cc2Br)C1=O	i	-0.23
Cc1ccc(-c2c(C(F)(F)F)nn3c(C)cc(C)nc23)cc1	i	-0.25
Cc1cccc(-c2noc(-c3ccccc3NC(=O)C3CC(=O)N(C4CCCCC4)C3)n2)c1 (stereo unspecified)	i	0.26
COc1ccc(NC(=O)Cn2cnc3ccc(S(=O)(=O)N4CCC(C)CC4)cc3c2=O)c(OC)c1	i	-0.9
O=C(c1ccc(Oc2nccnc2Sc2ccc(Cl)cc2)cc1)N1CCOCC1	i	0.18
COc1ccc(N2C(=O)CCS2(=O)=O)cc1S(=O)(=O)Nc1ccc(N(C)C)cc1	i	0.43

An excerpt of these results, with two lines to a compound:
Below each compound: Choline anaer gr, Choline anaer gr early
COc1ccc(N2C(=O)CCS2(=O)=O)cc1S(=O)(=O)Nc1ccc(N(C)C)cc1
  i, 0.43
Cc1cccc(-c2noc(-c3ccccc3NC(=O)C3CC(=O)N(C4CCCCC4)C3)n2)c1 (stereo unspecified)
  i, 0.26
O=C(c1ccc(Oc2nccnc2Sc2ccc(Cl)cc2)cc1)N1CCOCC1
  i, 0.18
CCCNC(=O)Cn1c(=O)c2c(OC)c(C)cnc2n(C)c1=O
  i, 0.19

Going on with the list.
SMILES	Choline anaer gr	Choline anaer gr early
O=C(Nc1ccc(Cl)cc1)C1CCCN(c2nc3ccccc3nc2C(F)(F)F)C1 (stereo unspecified)	i	1.95
CN1C(C(=O)c2ccccc2)=C(OC(=O)c2ccc(Br)cc2)c2ccccc2S1(=O)=O	i	0
Cc1nc2ccccc2c(=O)n1-c1ccc(NC(=O)Cc2ccccc2F)cc1	i	-1.2
CCOC(=O)Cn1c(=O)n(CC2CCCO2)c2nc(-c3cccc(C)c3)nc(C(N)=O)c21 (stereo unspecified)	i	-0.35
Cc1ccc2oc(SCc3noc(CCC(=O)Nc4nncs4)n3)nc2c1	i	-0.02
COc1ccc(C2C3=C(CC(C)(C)CC3=O)Nc3onc(C)c32)c(OC)c1 (stereo unspecified)	i	-0.08
COc1ccccc1OCC(=O)NCC(c1ccccc1Cl)c1c[nH]c2ccccc12 (stereo unspecified)	i	-0.65
Nc1nc2c(c(=O)[nH]1)N(C=O)C(CNc1ccc(C(=O)N[C@@H](CCC(=O)O)C(=O)O)cc1)CN2 (stereo partly specified)	i	0.43
CCC(=O)c1ccc2c(c1)N(CCCN(C)C)c1ccccc1S2	i	-0.46
Cn1c(C(=O)N(Cc2ccccc2)Cc2ccccc2)cc2c(=O)n3ccccc3nc21	i	0.73
CCCCCC(=O)/C=C/C=O	i	-0.09
Cc1ccc(NC(=O)c2nnn(Cc3ccc(Br)cc3)c2N)c(Cl)c1	i	1.12
Cn1nc(C(=O)Nc2ccc(F)cc2)c2c1-c1ccccc1S(=O)(=O)C2	i	0.11
O=C(CSc1nccn2nc(-c3ccc(Cl)cc3)cc12)NC1CCCC1	i	0.24
Cc1cccc(NS(=O)(=O)c2cc(C(=O)N3CCCC3)cs2)c1C	i	0.56
CC(C)NC(=O)CCn1c(=O)c2cc(Cl)ccc2n2c(=S)[nH]nc12	i	-1.28
CCc1nnc2ccc(NC3CC3)nn12	i	-0.78
O=C(CSc1nnc2n(Cc3cccs3)c(=O)c3sccc3n12)Nc1ccc2c(c1)OCO2	i	0.9
COc1ccc(CNC(=O)c2scc(-c3ccccc3)c2S(=O)(=O)N(C)c2ccc(C)cc2)cc1	i	0.58
CCn1c(CN2CC(C)OC(C)C2)nc2c1c(=O)n(C)c(=O)n2C (stereo unspecified)	i	0.34
OC[C@@H](O)[C@H](O)[C@@H](O)[C@H](O)CO	i	-0.59
COCCCNC(=O)c1cc(-c2ccc(OC)c(OC)c2)nc2n[nH]c(-c3ccc(Br)cc3)c12	i	0.74
COc1ccc(NC(=O)C2CCN(S(=O)(=O)c3cc(-c4noc(C)n4)cs3)CC2)cc1OC	i	0.2
Cc1[nH]c(C)c(S(=O)(=O)N2CCC(C(=O)NC(C)(C)C)CC2)c1C(=O)N1CCCCC1	i	-1.1
CCn1c(=O)c(N2CCCC(C(=O)NCc3ccccc3Cl)C2)nc2ccccc21 (stereo unspecified)	i	-0.32
Cc1csc(N2N=C(c3ccccc3C)CC2c2ccccc2)n1 (stereo unspecified)	i	0.97
CCC(C)Nc1cc(C)nc2c(C)c(-c3ccccc3)nn12 (stereo unspecified)	i	0.11
C=CCn1c(=O)c(C(=O)Nc2cccc(F)c2)c(O)c2ccccc21	i	1.41
COC(=O)C(NC(=O)CCc1c(C)nc2c(c(C)nn2-c2ccc(C)c(C)c2)c1C)C(C)C (stereo unspecified)	i	0.52
N#CC1=CN(c2ccc(F)c(F)c2)c2cc(Cl)ccc2S1(=O)=O	i	0.59
CN(C)CCCn1cnc2scc(-c3ccccc3)c2c1=O	i	0.66
COc1ccccc1Oc1cc(-c2cccc(C(=O)N3CCCC3)c2)ncn1	i	0.34
CC(C)Cc1csc(-c2csc(S(=O)(=O)NCc3ccccc3Cl)c2)n1	i	1.85
CC(C)NC(=O)c1cnc2sccn2c1=O	i	0.92
O=C1C2CCCCC2C(=O)N1CCCCN1CCN(c2nsc3ccccc23)CC1 (stereo unspecified)	i	0.09
CCc1ccc(CNC(=O)C(CC)n2nc(C)c3sc4ccccc4c3c2=O)cc1 (stereo unspecified)	i	-0.19
COc1ccc(OC)c(S(=O)(=O)NCc2nc3cccnc3n2C2CCCC2)c1	i	0.8

Profiles from above. Order of values: Choline anaer gr | Choline anaer gr early
CC(C)NC(=O)CCn1c(=O)c2cc(Cl)ccc2n2c(=S)[nH]nc12 as listed: i | -1.28
COc1ccc(S(=O)(=O)N2CCN=C2N2CCN(c3cccc(Cl)c3)CC2)cc1 as listed: i | 0.81
COc1cc(OC)c(NC(=O)N2CCN(S(=O)(=O)c3ccc4c(ccn4C)c3)CC2)cc1Cl as listed: i | 0.72
N#CC1=CN(c2ccc(F)c(F)c2)c2cc(Cl)ccc2S1(=O)=O as listed: i | 0.59
CC(=O)Nc1cc(-c2nc(-c3ccc(Oc4ccccc4)cc3)no2)ccc1C as listed: i | 0.57

This is a subset (hit frequency here may not be typical).
